Screening data deposited in PubChem by National Center for Advancing Translational Sciences (NCATS).
HPGD block = qHTS Assay for Inhibitors of HPGD (15-Hydroxyprostaglandin Dehydrogenase). 15-hydroxyprostaglandin dehydrogenase [NAD(+)] (Homo sapiens), P15428. purified HPGD, NADH fluorescence kinetic, PGE2 substrate. Potency, µM, for the others: at the highest dose activity change, negative = inhibition, actives largely listed as inhibitors. actives 4.3% (n = 150,000). AID 894, 2007; active = well fitted inhibition curve with a large enough effect (not every such curve was filed as active); inconclusive = small, poorly fitted or top-dose-only effect, or another doubt; inactive = no such curve, though single readings can be large or run the other way;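 also: top concentration of the series not given in the record; plate controls included wells without enzyme; inactives centre near -10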
Target sequence (P15428 whole entry, looked up): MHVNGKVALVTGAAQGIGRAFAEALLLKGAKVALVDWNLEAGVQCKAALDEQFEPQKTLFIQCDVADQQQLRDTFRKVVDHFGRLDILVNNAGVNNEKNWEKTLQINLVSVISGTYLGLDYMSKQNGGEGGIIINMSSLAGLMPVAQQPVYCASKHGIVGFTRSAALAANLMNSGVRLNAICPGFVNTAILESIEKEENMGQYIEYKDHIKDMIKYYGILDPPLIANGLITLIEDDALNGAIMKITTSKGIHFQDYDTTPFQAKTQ
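NADH formation kinetics: reaction with 30 uM PGE2 and 1 mM NAD+ (final), 20 nM enzyme, Tris-HCl pH 8 with Tween 20, after 15 min compound preincubation at room temperature. Fluorescence change, last versus first of five reads.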
* hit, by the source's call; ? = inconclusive; [ ] = dose if it differs, or a comment. % is scaled to controls: 0 for no effect and ±100 for the full control effect; potency is read from the fitted curve at half-maximal effect.

cpd | smiles | HPGD block
1 | CC(C)CCCC(C)C1CCC2C3CC[C@H]4CC(=O)CC[C@@]4(C)C3CC[C@@]12C (stereo partly specified) | -17%
2 | COC(=O)NC1CSCC1OC(=O)CCN1C(=O)c2ccccc2C1=O (stereo unspecified) | -3%
3 | COC(=O)CSc1ncnc2c1sc1nc(N3CCOCC3)c3c(c12)CCCC3 | ?
4 | O=C(Nc1cccc(Cl)c1)Nc1nnc(-c2ccccc2)o1 | -7%
5 | O=S1(=O)C=C(N2CCOCC2)c2ccccc21 | -5%
6 | CSc1cccc(NC(=O)CN(c2cccc(C)c2)S(C)(=O)=O)c1 | -12%
7 | O=c1c(/C=N/Nc2ccccc2)c(Sc2nnnn2-c2ccccc2)nc2ccccn12 | -4%
8 | O=C(Nc1cnc2ccccc2c1)C1COc2ccccc2O1 (stereo unspecified) | -5%
9 | Cc1csc(NC(=O)C2CCN(C(=O)CSc3nnc(C)n3Cc3ccccc3)CC2)n1 | -9%
10 | O=C(OCC(=O)N1CCc2ccccc21)c1cccnc1 | -2%
11 | COC(=O)CSC1=C(C#N)C(c2sccc2C)CC(=O)N1 (stereo unspecified) | -12%
12 | COc1ccccc1N=C1SCC(=O)N1c1ccccc1OC | ?
13 | CCOc1ccc2c(CC)cc(=O)oc2c1OCC | -9%
14 | CCOC(=O)Cc1nnc(Nc2cccc(C)c2)c2ccccc12 | -4%
15 | S=C(NCC1CCCCC1)Nc1cccnc1 | -24%
16 | O=C(C1=C(O)C(=O)N(CCc2ccccc2)C1c1cccnc1)c1ccco1 (stereo unspecified) | -32%
17 | Cc1ccc(C(=O)Nc2nc(-c3ccccc3)c(-c3ccccc3)o2)cc1 | ?
18 | O=C1CSC(c2ccccn2)N1c1ccccc1 (stereo unspecified) | -5%
19 | CCCN1C=CC(=C/C=C(\C#N)C(=O)OCC)C=C1 | -27%
20 | CCCN(CCC)S(=O)(=O)c1ccc(NC(=O)c2cc(C(=O)OC)cc([N+](=O)[O-])c2)cc1 | -19%
21 | Cc1cccc(NC(=O)CSc2nc3c(c(=O)[nH]2)CCCC3)c1C | -9%
22 | S=C(NCCCN1CCOCC1)Nc1ccc(Cl)c(Cl)c1 | -5%
23 | O=c1oc2ccccc2cc1-c1csc(NN=C2CCCCC2)n1 | -19%
24 | O=C(CSc1nc(-c2ccccc2)cc(=O)[nH]1)NCc1ccc2c(c1)OCO2 | -9%

Structural class, the compounds so far with a halogen
cpd | smiles | HPGD block
4 | O=C(Nc1cccc(Cl)c1)Nc1nnc(-c2ccccc2)o1 | -7%
22 | S=C(NCCCN1CCOCC1)Nc1ccc(Cl)c(Cl)c1 | -5%

Other records.
cpd | smiles | HPGD block
25 | COc1ccc(N2CC(C(=O)NCCc3ccc(OC)c(OC)c3)CC2=O)cc1 (stereo unspecified) | -11%
26 | Cc1ccc(OCc2nnc(SCC(=O)NC3CCCCC3)n2C)cc1 | -4%
27 | C=CCSc1nc2c(c(=O)[nH]1)C(C(C)C)C(C#N)=C(N)O2 (stereo unspecified) | -6%
28 | CCCc1nc(NCc2ccco2)c(C#N)c2c1COC(C)(C)C2 | -27%
29 | CSc1nnnn1-c1ccc(C)c(Cl)c1 | -4%
30 | CCCNS(=O)(=O)c1ccc(OCC(=O)NCc2ccco2)cc1 | -3%
31 | O=C(CCCc1nc2ccccc2s1)N1CCN(c2ccccc2F)CC1 | -7%
32 | Cc1ccc(S(=O)(=O)/N=C(/Nc2nc(C)cc(C)n2)N2CCOCC2)cc1 | -8%
33 | COc1ccc(-c2ccc(-c3noc(C(C)C)n3)c(OC)n2)cc1 | ?
34 | O=C(NCCCCNC(=O)c1cccnc1)c1cccnc1 | 8%
35 | CCN=c1scc(-c2ccc3c(c2)NC(=O)CO3)n1N=C1CCCC1 | 16µM*
36 | O=C(Nc1cc(Sc2nc3ccccc3s2)cc([N+](=O)[O-])c1)c1cccc(F)c1F | -6%
37 | O=C(NCCCN1CCOCC1)c1ccc(Cl)s1 | -21%
38 | CCc1ccc(N(CC(=O)NC2CCCCC2)S(=O)(=O)c2c(C)noc2C)cc1 | -1%
39 | CSc1nnc2c(n1)OC(C)=Nc1ccccc1-2 | -11%
40 | COc1ccc(OC)c(NC(=O)CSc2nnc(CNC(=O)COc3ccc(Cl)cc3)o2)c1 | -14%

Fetched one by one from above, 3 records:
cpd | smiles | HPGD block
7 | O=c1c(/C=N/Nc2ccccc2)c(Sc2nnnn2-c2ccccc2)nc2ccccn12 | -4%
20 | CCCN(CCC)S(=O)(=O)c1ccc(NC(=O)c2cc(C(=O)OC)cc([N+](=O)[O-])c2)cc1 | -19%
17 | Cc1ccc(C(=O)Nc2nc(-c3ccccc3)c(-c3ccccc3)o2)cc1 | ?

Next section
cpd | smiles | HPGD block
41 | O=C1NC(c2ccccc2)(C(F)(F)F)C(=O)N1Cc1cccnc1 (stereo unspecified) | -19%
42 | CNc1cc([N+](=O)[O-])ccc1N/C=C/C(=O)c1ccc2c(c1)OCO2 | -16%
43 | CC1CCc2nc(N)c(C#N)c(-c3cccnc3)c2C1 (stereo unspecified) | -26%
44 | CN(Cc1ccccc1)Cc1c(F)cccc1F | -14%
45 | CS(=O)(=O)N(CC(=O)N1CCOCC1)c1ccc2c3c(cccc13)CC2 | -4%
46 | COc1ccc(OC)c2c1sc(=NC(=O)C(C)(C)C)n2C | -18%
47 | O=C(CN1CCN(c2ccccc2)CC1)Nc1ccc(-n2cnnn2)cc1 | -3%
48 | COC(=O)c1sc(NC(C)=O)c(C(=O)OC)c1C | 32µM*
49 | O=C(CN1CCCCC1)Nc1cccc(Cl)c1Cl | -15%
50 | CCOC(=O)C1CCCN(C(=O)Cn2nc(CC)n3c(cc4sccc43)c2=O)C1 (stereo unspecified) | -12%
51 | Cn1c(SCC(=O)C(C)(C)C)nnc1-c1ccncc1 | -12%
52 | CN(C(=O)CSc1nnc(Nc2ccccc2)s1)c1c(N)n(Cc2ccccc2)c(=O)[nH]c1=O | -4%
53 | COC(=O)c1ccccc1NC(=O)C1CC(=O)N(c2ccc(C)c(C)c2)C1 (stereo unspecified) | -11%
54 | N#Cc1c(NC(=O)CN2CCCCC2)sc2c1CCC2 | -8%
55 | O=C(CSc1nnc(COc2ccccc2)n1Cc1ccco1)Nc1ccc2c(c1)OCCO2 | -1%
56 | Cc1ccc(-n2c(C)cc(/C=N/NC(N)=S)c2C)cc1 | -6%
57 | Cc1cccc(C)c1NC(=O)c1ccc([N+](=O)[O-])s1 | -8%
58 | Cc1ccc(S(=O)(=O)OCCc2ccccc2)cc1 | -13%
59 | Cc1cccc(C)c1NC(=O)C1(NC(=O)Cn2cccc([N+](=O)[O-])c2=O)CCCCC1 | -10%
60 | O=C1c2ccccc2NC(c2ccccc2)N1/N=C/c1ccccc1 (stereo unspecified) | -14%
61 | COc1cccc([C@@H]2Oc3ccc(OC)cc3C(=O)[C@H]2OC(=O)NCc2ccco2)c1 | -1%
62 | COc1ccc(-c2cc(-c3cccs3)c(C#N)c(SCC(=O)NCc3ccccc3)n2)cc1 | ?
63 | COc1cc(OC)c(S(=O)(=O)NCc2ccco2)cc1S(=O)(=O)NCc1ccco1 | -3%
64 | N#Cc1cc2nc(O)c(O)nc2cc1[N+](=O)[O-] | -26%
65 | O=c1[nH]cnc2scc(-c3ccccc3)c12 | 1%
66 | Cc1ccccc1OCCn1cc(/C(N)=N/O)c2ccccc21 | -7%
67 | CCCCOC(=O)c1ccc(N2C(=O)CC(N3CCN(C/C=C/c4ccccc4)CC3)C2=O)cc1 (stereo unspecified) | -12%
68 | CN(Cc1cnc2nc(N)nc(N)c2n1)c1ccc(C(=O)N[C@@H](CCC(=O)O)C(=O)O)cc1 | ?
69 | COc1nc(NCc2cccnc2)nc(OC)n1 | -15%
70 | N#Cc1c(N)sc(=S)c2c1CCN(Cc1ccccc1)C2 | ?
71 | CCOC(=O)C1=C(C)NC(SCC(N)=O)=C(C#N)C1c1cccs1 (stereo unspecified) | ?
72 | Cc1cc(C)nc(N2C(=O)CC(C(=O)O)NC2=NCCc2c[nH]c3ccccc23)n1 (stereo unspecified) | -8%
73 | Fc1ccc(Nc2nc(N3CCOCC3)c3ccccc3n2)cc1 | ?
74 | COc1nc(Oc2ccc(=O)n(C)n2)nc(N(C)C)n1 | -10%
75 | Cn1c(N)c(C(=O)COC(=O)c2cc(C(F)(F)F)nc3c(C(F)(F)F)cccc23)c(=O)n(C)c1=O | -6%
76 | O=C(NNS(=O)(=O)c1ccc2ccccc2c1)C1CCN(Cc2ccccc2)CC1 | 1%
77 | O=C(Cc1cccs1)NCCN1CCOCC1 | -10%
78 | CC(C)(C)C1CCc2onc(C(=O)NCc3ccc(F)cc3)c2C1 (stereo unspecified) | -9%
79 | Cc1ccc(S(=O)(=O)c2c(C)cc(C)nc2Oc2cccc(C)c2C)cc1 | -5%
80 | Cc1ccccc1N=C(N)Nc1ccccc1C | 0%

Reformatted as labelled records: entries from further up
77. O=C(Cc1cccs1)NCCN1CCOCC1
- HPGD block = -10%
78. CC(C)(C)C1CCc2onc(C(=O)NCc3ccc(F)cc3)c2C1 (stereo unspecified)
- HPGD block = -9%
79. Cc1ccc(S(=O)(=O)c2c(C)cc(C)nc2Oc2cccc(C)c2C)cc1
- HPGD block = -5%
80. Cc1ccccc1N=C(N)Nc1ccccc1C
- HPGD block = 0%

Additional entries follow.
cpd | smiles | HPGD block
81 | O=C(Nc1ccc2c(c1)OCO2)NC1CCN(Cc2ccccc2)CC1 | -1%
82 | Brc1ccc(-c2nnc(-c3ccco3)o2)cc1 | -19%
83 | O=C(Cc1ccc([N+](=O)[O-])cc1)Nc1cccc(C(F)(F)F)c1 | -1%
84 | Cc1ccc(NC(=O)CCC(=O)OCC(=O)c2ccc(Oc3ccc([N+](=O)[O-])cc3)cc2)cc1 | -2%
85 | CC(=O)Nc1sc(N/N=C\c2ccco2)nc1-c1cccs1 | 32µM*
86 | O=[N+]([O-])c1ccc(/C=N/NS(=O)(=O)c2ccc(Cl)cc2)o1 | 28µM*
87 | Cc1ccc(COc2ccc(/C=N/O)cc2)cc1 | -7%
88 | CCC(CC)C(=O)NCCc1ccc(F)cc1 | -10%
89 | COc1ccccc1NC(=O)CSC1CC(=O)N(c2ccc3c(c2)OCO3)C1=O (stereo unspecified) | -19%
90 | CCC(C)(C)n1nnnc1C(C(C)C)N1CCN(C)CC1 (stereo unspecified) | 0%
91 | Cc1ccc(S(=O)(=O)c2ccc(Cl)cc2)cc1S(=O)(=O)N1CCN(C)CC1 | -10%
92 | CC1Cn2c(nc3sc4c(c3c2=O)CCC4)N1CCO (stereo unspecified) | ?
93 | OC(COCc1ccccc1)CN1CCc2ccccc2C1 (stereo unspecified) | -9%
94 | CCn1c(SCc2ccc(C(=O)OC)o2)nc2sc3c(c2c1=O)CCCC3 | -10%
95 | O=S(=O)(c1cccs1)N1CCc2ccccc2C1 | -10%
96 | O=S(=O)(c1ccc(F)cc1)n1ccc(-c2cccc(OCc3ccc(Cl)cc3Cl)c2)n1 | -1%
97 | CC(C)C(=O)N1CCN(c2ccccc2NC(=O)c2cccc(Cl)c2)CC1 | -6%
98 | Cc1cc(C)c(-c2cc(NC(=O)COC(=O)c3ccc(C#N)cc3)n(-c3ccccc3)n2)cc1C | -18%
99 | CCN=C1S/C(=C\c2cc(Br)ccc2OCC(=O)OCC)C(=O)N1CC | 51%[activator]
100 | COc1ccc(C(CC(=O)O)NC(=O)Cc2ccccc2)cc1 (stereo unspecified) | -8%
101 | Cc1cccc(NC(=O)CN2C(=O)S/C(=C\C(=O)Nc3ccc(Cl)cc3)C2=O)c1 | -9%
102 | O=C(COc1ccc2ccccc2c1)NCCn1ccc2ccccc21 | -22%
103 | CC(C)CC(NC(=O)c1cccs1)c1nnc(SCc2ccc(Cl)c(Cl)c2)n1C (stereo unspecified) | -1%
104 | COC(=O)c1c(C)nn(-c2ccccc2)c1N | ?
105 | Cc1ccccc1N1C(=O)c2cc(S(N)(=O)=O)c(Cl)cc2NC1C (stereo unspecified) | ?
106 | Cn1c(N2CCCCC2)cc(=O)n(C)c1=O | -13%
107 | Nc1nnc(-c2cn(-c3ccccc3)nc2-c2ccccc2)o1 | -20%
108 | CC(=O)Nc1ccc(S(=O)(=O)N2CCc3nc(COc4ccccc4)c4c(c3C2)CO[C@@H](C)C4)cc1 | 1%
109 | CSc1nc(NC(C)(C)C)nc(N2CCOCC2)n1 | -17%
110 | Oc1ccc2ccccc2c1C1Nc2cccc3cccc(c23)N1 | -29%
111 | COc1ccc(-c2[nH]nc3c2C(c2ccncc2)C(C#N)=C(N)O3)cc1 (stereo unspecified) | -17%
112 | Cc1nccn1S(=O)(=O)c1ccc(Br)cc1Br | -5%
113 | CC1=C(C(=O)OCC2CCCO2)C(c2ccc(C)o2)C2=C(CC(c3ccc(F)cc3)CC2=O)N1 (stereo unspecified) | -11%
114 | Cc1cc(SCC(=O)c2cc(C)n(C)c2C)nc2ccccc12 | -20%
115 | Cc1ccc(CN2CCN(/N=C/c3ccco3)CC2)c(C)c1 | -6%
116 | COC(=O)C1=C(C)N=C2SC(C)C(=O)N2C1c1cccs1 (stereo unspecified) | -20%
117 | O=C(NCCc1c[nH]c2ccccc12)c1ccc(-n2cnnn2)cc1 | -14%
118 | Cc1c(Br)c([N+](=O)[O-])nn1CCCC(=O)Nc1sc2c(c1C#N)CCC2 | 13µM*
119 | COC(=O)Nc1sc2nc(C)cc(C)c2c1-n1cccc1 | -3%
120 | CCC(=O)N1c2ccccc2NC2=C(C(=O)CCC2)C1c1cccnc1 (stereo unspecified) | -7%
121 | COc1ccccc1NS(=O)(=O)c1ccc(Cl)c(NC(=S)NC(=O)C2CCCC2)c1 | -8%
122 | O=S(=O)(NCCc1ccccc1)c1ccccc1 | -4%
123 | O=C(Nc1c(F)cc(F)cc1Br)C1CCCO1 (stereo unspecified) | -10%

A portion of the library (hit frequency here may not be typical).
